From PubChem BioAssay
BJeLR viability = BJeLR cell viability loss | BJeLR (HRASV12) viability, CellTiter-Glo ATP luminescence, 48 h; reference of the scale not given here | hit rate 0.17% among 300,000 | inhibition, % (test concentration not listed) | AID 1554;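 active = replicate mean above 50%; inconclusive = above 50% but judged a plate artefact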;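 also: 50 nL library stock added to about 25 µL; numbers are from one replicate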
Mtb hypoxia inh = reduces hypoxia-regulated biosensor signal in M. tuberculosis; fluorescence inhibition, % (concentration not given with the values); M. tuberculosis hypoxia-regulated fluorescent reporter, fluorescence; hit rate 0.1% among 300,000; AID 1159583;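 active = 35 to 45% if threefold the growth effect, above 45% if 1.5-fold the growth effect; inactive = the rest, general growth blockers included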;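 also: wells of about 50 µL received 100 nL stock; 0% = vehicle wells and 100% = reference inhibitor wells; whole bacteria with a GFP reporter of the hypoxia response; strong numbers were not always called active; many hits fall short of the cut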
RN4220 kill = S. aureus RN4220 growth inhibition. OD600, 16 h. inhibition, % (concentration not given with the values). hit rate 0.33% among 330,000. AID 1259311;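 active = z-score of -3 or lower and OD600 up to 0.18 on both plates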;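 also: plate controls were untreated cells for no effect and reference antibiotic for full effect; stock transfer was 100 nL into about 80 µL; one replicate is shown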
Autofluor counter = flagged as autofluorescent in microsphere protease counterscreen; fluorescence intensity (no concentration beside the values); hit rate 3.1% among 360,000; compound autofluorescence counterscreen, microsphere flow cytometry; active compounds read high;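 active = at least 3 SD above the mean of all compounds, about 16000 in these data; inconclusive = too few beads counted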;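 also: 100 nL of 1 mM stock went into each well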
ugtP null kill = kills S. aureus RN4220 lacking UgtP | AID 1259309 | growth inhibition, % (no concentration beside the values) | S. aureus RN4220 ugtP deletion, OD600 growth, 16 h; some inactives read as strong as hits | hit rate 0.54% among 330,000;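 active = z-score under -3 and OD600 up to 0.15 on both plates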;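 also: plate controls were untreated wells for no effect and antibiotic for full effect; wells of about 80 µL received 100 nL stock; the first replicate is given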
PrP 5UTR inh = inhibition of PrP 5' UTR reporter expression. inhibition, % (no concentration beside the values). cell-based PrP 5' UTR mRNA reporter, plate reader. hit rate 0.35% among 340,000;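 active = every replicate at 50% or more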;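 also: 0 = median of the neutral control wells; tested in H4 reporter cells; numbers are from one replicate; inactives centre near -14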
Mtb hypoxia inh growth = further read-out of Mtb hypoxia inh, marked with its call; growth inhibition, %; measured here: M. tuberculosis growth (absorbance);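 0% = vehicle and 100% = reference antibiotic; read after six days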
* hit, by the source's call; ? = inconclusive; . = not tested or not shown.

SMILES | BJeLR viability | Mtb hypoxia inh | Mtb hypoxia inh growth | RN4220 kill | Autofluor counter | ugtP null kill | PrP 5UTR inh
Cc1c(N=C2N=C(NC(=O)c3cccs3)c3ccccc32)c(=O)n(-c2ccccc2)n1C | -1 | 9 | -1 | 0.8 | 10980 | 11 | 0
CN1CCS/C1=C/C=C1/SC(=S)N(Cc2ccccc2)C1=O | -8 | 20 | 6 | -5.6 | 4757 | -2 | -45
O=C1N=C(N2C=CC(=C3C=CNC=C3)C=C2)/C(=C/N=NC(=O)c2ccccc2O)S1 | 1 | . | . | . | 5568 | . | -15
CC1(C)CNC(=O)c2sc(N3CCCCC3)nc2C1 | 4 | 4 | -3 | 2.8 | 9563 | 0 | -35
Cc1cc(Cl)ccc1NC(=O)Nc1c(C)n(-c2ccccc2)c(=O)n1C | 2 | -2 | 1 | 0.1 | 22798* | 7 | -14
CC(=O)Nc1ccc(CCCCc2ccc(NC(C)=O)cc2)cc1 | . | 3 | 11 | 1.2 | 3525 | -2 | 2
O=C(c1ccc(NS(=O)(=O)c2ccc(F)cc2)cc1)N1CCOCC1 | -8 | -4 | 0 | -0.7 | 5095 | 1 | -16
Oc1ccc(-c2[nH]ncc2-c2ccc(Cl)cc2)c(O)c1 | 8 | 3 | -5 | -16 | 6256 | 0 | -14
CN(C(=O)COC(=O)c1ccc2c(=O)n3c(nc2c1)CCC3)C1CCS(=O)(=O)C1 (centres undefined) | . | 13 | 1 | 13 | 4530 | -61 | -18
N#CCOc1nc(N2CCOCC2)nc(N2CCOCC2)n1 | 4 | -2 | -5 | -3.0 | 5713 | -3 | -14
COc1ccc(/C=N/NC(=O)c2ccc(N)cc2)cc1Cn1cc([N+](=O)[O-])cn1 | 35 | . | . | . | 4375 | . | -9
O=C(CSc1ccc(-c2ccco2)nn1)Nc1ccccc1 | -10 | -2 | 5 | 5.2 | 3238 | 8 | 1
CC(C)c1nc2n[nH]c(N)c2c2c1CCCC2 | 4 | -1 | -2 | 5.9 | 3418 | -4 | 12
CNC(=O)COc1ccc(Cl)c2cccnc12 | 1 | 1 | -3 | -1.5 | 4614 | -15 | -4
NC(=O)CSc1nnc(-c2ccc3c(c2)OCO3)o1 | 1 | 0 | -7 | -0.7 | 3670 | 0 | -48
Cc1nc(N)nc(N)c1/C=C/C(C)(C)c1ccc(Cl)cc1 | 69* | . | . | 99* | 3144 | 100* | 50
CCOc1ccccc1C(=O)NCC(=O)OCc1c(C)noc1C | -2 | 11 | 14 | 2.1 | 1764 | 1 | -18
Cc1cc(C)nc(NS(=O)(=O)c2ccc(NC(=O)c3ccc(S(=O)(=O)N4CC(C)OC(C)C4)cc3)cc2)n1 (centres undefined) | -11 | 11 | 4 | 0.3 | 2290 | -10 | -12
Cc1cccc(C)c1OCC(=O)NNC(=S)NC(=O)C1CC1 | 10 | 0 | 4 | 62 | 5289 | 34 | -12
CC(=O)N/N=C/c1cc([N+](=O)[O-])ccc1OCCOc1ccccc1 | 12 | . | . | . | 2606 | . | 0
CCOC(=O)c1cc2c(ccn2C)n1CC(=O)N(Cc1ccccc1)c1ccccc1 | 0 | . | . | . | 3169 | . | 6
Cc1cc(NC(=O)c2ccc3[nH]c(C)c(C)c3c2)ccn1 | 9 | 2 | 8 | 0.3 | 3563 | 9 | -10
CC1(C)CC(=O)C2=C(C1)N(c1ccccc1C#N)C(N)=C(C#N)C2c1cccs1 (centres undefined) | -5 | . | . | -6.3 | 2330 | 0 | -41
Cn1c(=O)c2cc(S(=O)(=O)N3CCOCC3)ccc2n(C)c1=O | -16 | 14 | 21 | 3.9 | 9655 | 1 | -15
CCOC(=O)N1CCC(N2CCN(c3cc(C)ccc3C)CC2)CC1 | 0 | 3 | 6 | -2.5 | 11472 | 0 | -3
CCCNc1nc(C)cc(-c2cc(C(=O)NCc3ccccc3)on2)n1 | -4 | 15 | 6 | 3.2 | 2899 | 1 | -9
COc1ccc(NS(=O)(=O)CC(C)C)c(OC)c1 | -1 | 0 | 11 | 2.5 | 1784 | -4 | -22
Cc1cc(Cl)ccc1NC(=S)N1CCN(Cc2ccccc2)CC1 | -11 | -2 | 5 | 0.2 | 2555 | -1 | 51*
COC(=O)c1ccc(OCC(=O)NC(C)(C)C)cc1 | -1 | . | . | 0.9 | 2673 | 7 | -19
Cc1ccc(SCc2c(C(=O)N/N=C/c3ccc4c(c3)OCO4)nnn2-c2nonc2N)cc1 | 2 | . | . | . | 5706 | . | 4
Cc1ccc(OCCn2cnc3cc([N+](=O)[O-])ccc3c2=O)cc1 | -10 | -11 | 14 | 11 | 5414 | -8 | -36
O=C(O)CN1CCN(c2ncc(C(F)(F)F)cc2Cl)CC1 | -19 | -1 | 9 | -2.0 | 2271 | -2 | -25
COc1ccc(-c2nsc3c(SCc4ccccc4)ncnc23)cc1 | -4 | 12 | 2 | 20 | 2035 | 4 | -47
O=C(NCC(=O)N1CCN(Cc2ccccc2)CC1)c1cccs1 | . | 4 | -1 | 2.3 | 2816 | 7 | -61
Cc1nn(Cc2nnc(SCC(=O)Nc3cccc(C(F)(F)F)c3)n2C)c(C)c1[N+](=O)[O-] | 5 | -2 | -5 | 1.9 | 5624 | 1 | -17
CCOC(=O)N1CCN(C(=O)CSCC(=O)Nc2nc(-c3cccs3)cs2)CC1 | 0 | 7 | 7 | 4.3 | 10878 | 6 | .
O=C(O)CSc1nc(C(F)(F)F)cc(=O)n1-c1ccccc1 | 12 | 4 | 10 | -0.3 | 9498 | -1 | -8
Cc1cccc(NC(=O)CC2c3ccccc3Oc3ccccc32)c1 | -1 | -1 | 10 | 5.4 | 1950 | 10 | -7
Cc1c(/C=N/O)sc2ccccc12 | -3 | . | . | . | 3672 | . | -7
C=CCc1cccc2cc(C(=O)O)c(=O)oc12 | -4 | 11 | 4 | 3.3 | ? | 3 | -13
COc1ccc(CC(=O)NCC(=O)NN=Cc2ccco2)cc1 | . | 2 | 0 | 0.3 | . | -4 | .
O=C(NCC(c1ccco1)N1CCCC1)c1sc2cc(F)ccc2c1Cl (centres undefined) | . | 3 | 14 | 2.9 | 4214 | 3 | 12
NC(=O)NNC1=Nc2cccc3cccc1c23 | 15 | 11 | 2 | 6.0 | 4540 | 2 | 0
Cc1cc(N/N=C/c2ccc(O)cc2O)c2ccccc2n1 | -2 | . | . | . | 4148 | . | -14
Cc1cc(Cl)ccc1OCC(=O)NCCCN1CCOCC1 | 5 | 1 | 4 | 6.8 | ? | 0 | 2
CC(=O)N1CCN(C(=O)c2ccc(Oc3ccccc3)cc2)CC1 | 4 | 10 | 10 | 2.6 | 4089 | 11 | -9
Cc1ccc(NC(=O)COC(=O)Cn2c(C)csc2=O)c([N+](=O)[O-])c1 | -1 | 1 | 15 | 1.1 | ? | 0 | -3
CCCCN1C(=O)NC(NS(=O)(=O)c2ccc(N)cc2)(C(F)(F)F)C1=O (centres undefined) | 2 | 12 | 3 | 2.2 | 19835* | -2 | -8
CC1CCN(S(=O)(=O)c2cccc(C(=O)Oc3ccc([N+](=O)[O-])cc3)c2)CC1 | 1 | 5 | -1 | 8.3 | 2036 | 7 | 2
O=C(Nc1ccccc1F)c1ccc(Br)o1 | -3 | . | . | . | 3848 | . | -33
Cc1cc(C(=O)NN=C2CC(=O)CC(C)(C)C2)c(C)n1-c1ccc(F)cc1 | . | -9 | 12 | -3.3 | . | -13 | .
Cc1cc2ccccc2n1CCNC(=O)c1cccs1 | -17 | -2 | 14 | 19 | 1143 | 13 | -8
CC(C)(C)OC(=O)N1CCC[C@H]1C(=O)Nc1ccc(Br)cc1 | -8 | 12 | 0 | 5.3 | 4166 | 8 | -7
COc1ccc(/C=C/C(=O)N[C@H](C(=O)O)C(C)C)cc1 | 9 | -2 | 5 | 2.8 | 4493 | 1 | -21
Cc1ccc(SCCC(=O)OCC(=O)Nc2ccc(S(N)(=O)=O)cc2)cc1 | 9 | 6 | 2 | 5.2 | 4621 | 3 | -13
CC(NC(=O)Nc1ccccc1Cl)c1ccc2c(c1)OCO2 (centres undefined) | -12 | 14 | 1 | 1.5 | 6230 | 4 | -6
CC(=O)N=c1ncn(CC(COC(C)=O)OC(C)=O)c2nc[nH]c12 (centres undefined) | -3 | -1 | 3 | 3.8 | 3957 | -2 | -3
Cc1ccc(C)c(N2N=C(C(=O)Nc3ccccc3N3CCCC3)CCC2=O)c1 | -1 | -8 | 4 | -5.0 | 6336 | -22 | -13
CN(CCNC(=O)CCNC(=O)Cn1ccc2ccccc2c1=O)Cc1ccccc1 | -2 | . | . | 2.3 | 4411 | 5 | 4
O=C(Nc1cccc(F)c1)NC1CCCCC1 | 0 | 7 | 8 | 1.7 | 11257 | -5 | .

The list continues:
SMILES | BJeLR viability | Mtb hypoxia inh | Mtb hypoxia inh growth | RN4220 kill | Autofluor counter | ugtP null kill | PrP 5UTR inh
O=C(Nc1nccs1)c1ccc(Cl)s1 | -1 | . | . | 0.8 | 5832 | 11 | -27
CCc1ccc(Nc2nnc(SCC(=O)N(C)C3CCS(=O)(=O)C3)s2)cc1 (centres undefined) | -1 | -5 | 3 | -3.2 | 4193 | -1 | -42
CCOC(=O)Cc1csc(NC(=O)C(C)c2ccc([N+](=O)[O-])cc2)n1 (centres undefined) | 0 | 4 | 1 | 5.5 | 2017 | 3 | -41
COc1cccc(NCc2cc3c(C(C)(C)C)nn(-c4ccccc4)c3[nH]c2=O)c1 | 0 | 6 | 6 | -6.7 | 5809 | 1 | 9
C=C(CO)CC1CC(O)[C@]2(C)OC3CC4OC5C[C@]6(C)O[C@]7(C)CCC8OC9C[C@]%10(C)OC%11C(C)=CC(=O)OC%11CC%10OC9CC(C)C8OC7CC6O[C@]5(C)CC=CC4OC3CC2O1 (some centres undefined) | . | -2 | 9 | 5.5 | . | -4 | .
O=c1c(F)cn(C2CCCO2)c(=O)n1Cc1c(Cl)cccc1Cl (centres undefined) | -7 | 8 | 7 | 0.7 | 10941 | 2 | -2
Cc1cnc(C(=O)OCC(=O)NC2CCCCCCC2)cn1 | 7 | -6 | -1 | 4.6 | 2540 | 9 | -18
COc1ccc(NC(=O)c2ccc(N(C)S(C)(=O)=O)cc2)cc1OC | 1 | 2 | 7 | 2.0 | 4216 | 0 | -40
CC(=O)Nc1ccccc1OCc1nnc(-c2ccccc2Cl)o1 | 1 | -2 | -7 | 2.9 | 4084 | 6 | -6
COc1ccc(/C=C/C(=O)NCC(=O)N/N=C/c2cccs2)cc1 | -1 | . | . | . | 3873 | . | -14
CCOC(=O)c1c(NC(=O)CSc2nnnn2C)sc(C)c1-c1ccc(C)cc1 | -3 | 9 | 1 | 3.6 | 8446 | 4 | -15
CC(NC(=O)C(=O)NN=C1CCCCCC1)c1ccccc1 (centres undefined) | -9 | . | . | 3.0 | 3925 | 0 | -3
Brc1cccc(Nc2nc(-c3cccnc3)cs2)c1 | -9 | 1 | 6 | -14 | 3881 | 43 | -51
S=C(NCc1ccccc1)NC1CCSc2ccccc21 (centres undefined) | -5 | 1 | 0 | -8.1 | 4662 | -8 | -7
Cc1cccc(-c2nnc(-c3cccc4ccccc34)o2)c1 | . | 6 | 5 | -3.7 | 4054 | 1 | -91
CCC(C)NC(=O)c1cc(S(=O)(=O)N2CCCCC2)c[nH]1 (centres undefined) | -3 | 8 | 3 | 5.6 | 4544 | 9 | -7
Cc1nccn1CC(=O)N/N=C/c1cc(Br)cs1 | 1 | . | . | . | 4102 | . | -32
O=C(CSc1nnc(-c2ccccc2)o1)N1CCc2ccccc2C1 | 2 | 8 | 4 | 4.4 | 9441 | -8 | -23

Gathered by group: the entries above containing an NH in an aromatic ring.
SMILES | BJeLR viability | Mtb hypoxia inh | Mtb hypoxia inh growth | RN4220 kill | Autofluor counter | ugtP null kill | PrP 5UTR inh
Oc1ccc(-c2[nH]ncc2-c2ccc(Cl)cc2)c(O)c1 | 8 | 3 | -5 | -16 | 6256 | 0 | -14
CC(C)c1nc2n[nH]c(N)c2c2c1CCCC2 | 4 | -1 | -2 | 5.9 | 3418 | -4 | 12
Cc1cc(NC(=O)c2ccc3[nH]c(C)c(C)c3c2)ccn1 | 9 | 2 | 8 | 0.3 | 3563 | 9 | -10
CC(=O)N=c1ncn(CC(COC(C)=O)OC(C)=O)c2nc[nH]c12 (centres undefined) | -3 | -1 | 3 | 3.8 | 3957 | -2 | -3
COc1cccc(NCc2cc3c(C(C)(C)C)nn(-c4ccccc4)c3[nH]c2=O)c1 | 0 | 6 | 6 | -6.7 | 5809 | 1 | 9
CCC(C)NC(=O)c1cc(S(=O)(=O)N2CCCCC2)c[nH]1 (centres undefined) | -3 | 8 | 3 | 5.6 | 4544 | 9 | -7
